Screens deposited in PubChem BioAssay by ICCB-Longwood Screening Facility, Harvard Medical School.
AID504770 = growth inhibitors of E. coli YBA685 in a screen for V. cholerae RctB (chromosome II replication) inhibitors | 0.27% of 130,000 active | E. coli YBA685 rctB-dependent plasmid, OD600 growth, 3 h; hits give low values | AID 504770 | z-score (concentration not given with the values);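 active = z-score under -2 on both plates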;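 note: wells of about 30 µL received 100 nL stock; score is relative to mean and SD of the test wells; the first replicate is given; strong numbers were not always called active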
CapD inh = CapD enzyme inhibition | purified CapD enzyme, fluorescence intensity read-out; hits give low values; some hits fall short of the stated cut | z-score (concentration not given with the values) | 0.23% of 140,000 active | AID 492967;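 active = z-score under -4 in either of two replicates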;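 note: stock transfer was 100 nL into about 40 µL; score is relative to mean and spread of the plate; one replicate is shown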
Numbers without * were called inactive; / = not tested or not shown; & = joins results of further samples.

Preview:
nr	SMILES	AID504770	CapD inh
1	COc1c(O[C@@H]2O[C@H](CO)[C@@H](O)[C@H](O)[C@H]2O)cc2c(c1OC)-c1ccc(SC)c(=O)cc1C(NC(C)=O)CC2 (some centres not stated)	/	-0.82
2	O=C1c2ccccc2-c2nnc(-c3cccs3)cc21	0.55	-0.33

This part in full, previewed entries included:
nr	SMILES	AID504770	CapD inh
1	COc1c(O[C@@H]2O[C@H](CO)[C@@H](O)[C@H](O)[C@H]2O)cc2c(c1OC)-c1ccc(SC)c(=O)cc1C(NC(C)=O)CC2 (some centres not stated)	/	-0.82
2	O=C1c2ccccc2-c2nnc(-c3cccs3)cc21	0.55	-0.33
3	O=c1[nH]c2ccccc2s1	1.8&-1.5	0.15
4	CC1CCCC(C)N1CCCNC(=O)NCc1noc2ccccc12 (configuration not stated)	-0.85	-0.79
5	c1ccc(N2CCN(Cc3nnnn3Cc3ccc4c(c3)OCO4)CC2)cc1	-0.15	/
6	CCOC(=O)c1cnn(CCOC(=O)C(C)(C)C)c1NC(=O)C(C)(C)C	1.1	-0.27
7	COc1cccc2c1c(NC(=O)C1CCN(C(=O)OCc3ccccc3)CC1)nn2C	-0.35	-1.1
8	CCN(CC)Cc1nc2sc(C)c(C)c2c(=S)[nH]1	-0.6	/
9	COC(=O)c1sc2nc3ccccc3cc2c1N	0.85	/
10	CSC(SC)=C(C#N)C(=O)c1cccc(C(F)(F)F)c1	0.45	-1.4
11	NNc1ccc(Br)cc1	-6.3*	0.14
12	COc1ccc(C)cc1N(C)C(=O)c1cc2c(=O)[nH]c3ccc(C)cc3c2s1	-0.45	28
13	Cc1ccc2oc(=O)cc(CSc3cnc4ccccc4n3)c2c1	-0.15	-0.24
14	COc1cc(NC(=O)/C=C/C(=O)O)cc(OC)c1	/	-0.22
15	O=C(OCc1ccc(-c2ccc(Br)cc2)o1)c1ccc2c(c1)OCCO2	/	-0.18
16	Cc1cc2cc(CNC(=O)CCC3CCCC3)ccc2n1C	-0.45	-0.71
17	CC1=C(C(=O)N2CCN(Cc3ccccc3)CC2)C2(CCCCC2)OC1=O	0.3	0.21
18	COc1ccc(Br)cc1CNC(=O)C1CCCN(S(C)(=O)=O)C1 (configuration not stated)	0	0.34
19	COc1cc(SC)ccc1C(=O)Nc1ccc(S(=O)(=O)N(C)C)cc1	0.2	/
20	COc1ccc(C(=O)/C=C/Nc2ccc(S(=O)(=O)Nc3cnc4ccccc4n3)cc2)cc1	0.7	0.22
21	Cc1ccccc1NC(=O)CSc1[nH]c(=O)cc(C)c1C#N	-0.75	-0.68
22	O=C(OCc1cc(=O)n2ccsc2n1)c1ccccc1NCCO	0.55	/
23	O=C(OCCN1C(=O)C2C3c4ccccc4C(c4ccccc43)C2C1=O)c1ccccc1[N+](=O)[O-] (configuration not stated)	/	-0.57
24	COc1cc(-c2cn[nH]c2N)cc(OC)c1OC	0.2	0.58
25	CC(C)(C)C(=O)NCCn1ccc2ccccc21	2.8	-0.93
26	Cc1c(C)c(C)c(CSc2nnc(/C(C#N)=C/c3c(Cl)cccc3Cl)n2C)c(C)c1C	/	2.7
27	O=[N+]([O-])c1c(Sc2ccc(C(F)(F)F)cn2)ncnc1Sc1ccc(C(F)(F)F)cn1	/	0.24
28	CCOC(=O)c1c(/N=c2\oc3cc(O)ccc3cc2C(N)=O)sc2c1CCCC2	/	-0.085
29	CN(C)CCC=C1c2ccccc2CCc2ccccc21	0	0.15&0.15
30	Cc1ccc2[nH]c3c(c2c1)CCCC3Nc1ccc(Cl)cc1 (configuration not stated)	-0.05	0.28
31	C=CCn1c(SCC(=O)Nc2ccc(Cl)cc2)nc2sc(CC)cc2c1=O	/	-0.085
32	CCCC1(CC)NC(=S)N(c2ccc(Cl)cc2)N1 (configuration not stated)	/	0.02
33	CCOC(=O)CCCn1c(C)nc(=O)c(-c2ccccc2)c1C	-0.15	/
34	O=C(NCc1ccccc1)c1cccnc1NCc1ccccc1	-0.85	27
35	COc1ccc(CCN(C)C(=O)CSc2nnc3n2CCCCC3)cc1OC	0.6	/
36	CC(=O)Nc1ccc(NC(=O)C(C)OC(=O)C2CC3C=CC2C3)cc1 (configuration not stated)	-0.45	0.15
37	COc1cccc(C2CC(=O)Nc3nc(N)[nH]c(=O)c32)c1 (configuration not stated)	-1.5	-0.68
38	COc1ccc(-c2ccnc(-c3ccc(OC(=O)c4ccc(F)cc4)cc3)n2)cc1	/	-0.11
39	CCOC(=O)c1n[nH]c(=S)[nH]c1=O	-0.95&1.2	-1.4&-1.6
40	CC(C)(C)C1CCc2c(sc(NC(=O)c3ccco3)c2C(=O)N2CCCC2)C1 (configuration not stated)	-1.6	0.21

Rewritten in transposed form: 7 of the compounds above
(21) Cc1ccccc1NC(=O)CSc1[nH]c(=O)cc(C)c1C#N
(22) O=C(OCc1cc(=O)n2ccsc2n1)c1ccccc1NCCO
(23) O=C(OCCN1C(=O)C2C3c4ccccc4C(c4ccccc43)C2C1=O)c1ccccc1[N+](=O)[O-] (configuration not stated)
(24) COc1cc(-c2cn[nH]c2N)cc(OC)c1OC
(25) CC(C)(C)C(=O)NCCn1ccc2ccccc21
(26) Cc1c(C)c(C)c(CSc2nnc(/C(C#N)=C/c3c(Cl)cccc3Cl)n2C)c(C)c1C
(27) O=[N+]([O-])c1c(Sc2ccc(C(F)(F)F)cn2)ncnc1Sc1ccc(C(F)(F)F)cn1

Assay by compound,21,22,23,24,25,26,27
AID504770,-0.75,0.55,/,0.2,2.8,/,/
CapD inh,-0.68,/,-0.57,0.58,-0.93,2.7,0.24

Going on with the list.
nr	SMILES	AID504770	CapD inh
41	C=CCN(CC=C)S(=O)(=O)c1ncn[nH]1	0.35	-0.045
42	CCN1C(=O)c2ccc(-c3nc4cc(Cl)ccc4o3)cc2C1=O	-0.6	8.4
43	CCCCn1c(CCc2cc(OC)c(OC)c(OC)c2)nc2cc(S(N)(=O)=O)ccc21	0.35	/
44	C=CCC(Nc1ccc(OC)cc1)c1ccco1 (configuration not stated)	-0.7	1.6
45	Nc1ccc2c(C(F)(F)F)cc(=O)oc2c1	/	4.1
46	CC(C[N+](C)(C)C)OC(=O)C1(c2ccccc2)CCCC1 (configuration not stated)	-2.9	-0.72
47	COc1cc(OC)cc(-c2nc3ccccc3c(=O)n2NC(=O)c2ccc(Br)cc2)c1	/	-0.095
48	CCOC(=O)N1CCC(NC(=O)c2cnn3c(C(F)(F)F)cc(-c4ccc(C)cc4)nc23)CC1	/	0.59
49	S=C1NC(c2ccccc2)=CC(c2ccccc2Cl)N1 (configuration not stated)	/	-0.29
50	CCN(CC)CCN1Cc2c(sc(C)c2C)N(C(=O)c2ccccc2)C1	-0.3	0.82
51	CCOc1ccccc1CN(C)CCc1ccccn1	-0.85	-0.45
52	COc1cc(C(=O)N(CCC#N)C2CCCCC2)cc(OC)c1OC	-0.1	0.42
53	O=S(=O)(c1cccc2nsnc12)N1CCCC1	-2	-1.8
54	O=C(CSc1ccc(Cl)cc1)Nc1ccc(F)c(F)c1F	/	0.27
55	O=C(NC1CCCCC1)Sc1ccccc1	-1.1	-0.84
56	N/C(=N\O)c1cccc(-n2cccc2)c1	-1.2	0.92
57	CCOC(=O)c1cncc(C#CCOC(=O)c2c(-c3ccccc3)noc2C)c1	-1.1	0.59
58	CC(OC(=O)c1ccco1)C(=O)Nc1ccccc1-c1ccccc1 (configuration not stated)	-0.35	/
59	Cc1cccc(N2CCN(C(C)C(=O)N(C)c3ccccc3)CC2)c1C (configuration not stated)	-0.95	/
60	CC(NC(=O)C1=NN(C2CCS(=O)(=O)C2)C(=O)CC1)c1ccc(S(N)(=O)=O)cc1 (configuration not stated)	0.9	/
61	CCn1nc(C(=O)OCC(=O)c2cc(C)n(Cc3cccs3)c2C)c2ccccc2c1=O	1.1	/
62	Cc1cccc(C(=O)Nc2ccc(N3CCN(C(C)C)CC3)cc2)c1	2.2	-0.19
63	CC(C)n1c(COc2ccc(Cl)cc2)nc2ccccc21	-0.35	0.085
64	CCN1CC(=O)N(c2ccccc2OC)C1=S	2.5	-0.59
65	FC(F)(F)c1ccccc1N=C1CCCc2ccccc21	-0.85	-0.34
66	C=CCn1c(=S)[nH]c2sccc2c1=O	0.5	/
67	CSc1nnc(-c2ccccc2)n1C	-0.15	-1.3
68	CCc1ccc(-c2cn3c(n2)SCC3)cc1	1.9	/
69	CCCCN1C(=S)SC(C)(C)C1NO (configuration not stated)	1.6	-0.12
70	C=CCN1C(=O)C(CC(=O)Nc2ccc(Cl)cc2)NC1=S (configuration not stated)	-0.45	-0.15
71	N#CC1=C(N)Oc2n[nH]c(-c3ccc4c(c3)OCO4)c2C1c1c(F)cccc1Cl (configuration not stated)	/	-0.06
72	CC12CCC(C(=O)N3CCCc4ccccc43)(OC1=O)C2(C)C (configuration not stated)	-0.5	-0.24
73	c1ccc(OCc2nnc(-c3ccccc3)o2)cc1	-1.1	-1.5
74	CC(C)NC(=S)N/N=C/C1CC=CCC1 (configuration not stated)	-0.15	/
75	COc1cc2c3c(ccc2c(OC)c1OC)-c1[nH]ncc1CC3	0.4	23
76	Cc1csc2nc(SCCC(=O)Nc3ccccc3)[nH]c(=O)c12	1.4	2.3
77	N#Cc1cnn2c(-c3ccccc3)ccnc12	-0.8	5.7
78	CCOc1ccc(C2SCC(=O)Nc3c2c(=O)[nH]n3C(C)C)cc1 (configuration not stated)	1.2	-1
79	CCNC(=S)N/N=C/c1ccc(C)s1	-0.55	/
80	CNc1nc(-c2ccncc2)nc(-c2cccc(C(F)(F)F)c2)c1C#N	/	0.95
81	O=C1c2ccccc2C(=O)N1CCc1nnn(Cc2ccc(Cl)cc2)n1	0.6	/
82	CN(CCC#N)C(=O)c1cc2c(s1)-c1ccccc1S(=O)(=O)C2	1.8	0.57
83	CC(C)(C)C1CCC2(CC1)C(Nc1cccc(C(F)(F)F)c1)=NC(=S)N2c1ccc(O)cc1 (configuration not stated)	/	0.53
84	CCOC(=O)NN1C(=O)c2ccccc2NC1C (configuration not stated)	-0.35	88
85	Cc1nn(C)c2c1S(=O)(=O)N=C(N1CCOCC1)S2	-0.05	0.45
86	Cc1ccc(/C=C/C(=O)O)o1	-0.85	-0.45
87	CC1=C(C(=O)Nc2ccc(C)cc2)C(c2ccc(N(C)C)cc2)n2ncnc2N1 (configuration not stated)	/	-0.27
88	CCOc1ccc(-n2c(=O)c3c(C)c(C)sc3n(CC(=O)N3CC(C)CC(C)C3)c2=O)cc1 (configuration not stated)	-1.4	0.3
89	O=C1c2ccccc2C(=O)N1CCN1CCN(Cc2ccccc2)CC1	-0.9	-0.29
90	Cc1nc2ccccc2nc1CSc1nnc(-c2cccc(S(=O)(=O)N3CCOCC3)c2)o1	0.3	/
91	Cc1cccn2c(=O)c3cc(C(=O)NC4CCCCC4)c(=N)n(Cc4ccco4)c3nc12	-1.2	2.1
92	CCC1CCCCN1C(=O)CSc1ncnc2ccccc12 (configuration not stated)	-0.35	-1.9
93	COCc1cc(C)nc(OCC(=O)O)c1C#N	0.95	/
94	CSc1ccc(C2C(C(=O)Nc3ccccc3C(F)(F)F)=C(C)NC3=C2C(=O)CCC3)cc1 (configuration not stated)	/	13
95	CC1=C(C(=O)N2CCCCC2)C(c2cccs2)C2=C(CCCC2=O)N1 (configuration not stated)	2.2	-1.5
96	CC(=O)NCCNC(=O)OCc1ccc(C(C)(C)C)cc1	/	-0.08
97	O=C(COC(=O)C1COc2ccccc2O1)Nc1ccccc1 (configuration not stated)	0.15	/
98	CC1(C)CC(=O)C2=C(C1)c1c(ccc3ccccc13)NC2c1ccc(-c2ccc([N+](=O)[O-])cc2)o1 (configuration not stated)	/	-0.14
99	Cc1[nH]c2ccccc2c1C1=CSC2=NS(=O)(=O)CCN12	0	/
100	CCN(CC(=O)Nc1ccccc1OC)Cc1cc(=O)n2cc(Cl)ccc2n1	-0.1	/

The list goes on.
nr	SMILES	AID504770	CapD inh
101	COc1ccc(C2CCCN2Cc2nc(N)nc(Nc3ccc(C)cc3)n2)c(OC)c1 (configuration not stated)	-0.4	/
102	CC(NC(CC(=O)c1ccc(F)cc1)C(=O)O)c1ccccc1 (configuration not stated)	-0.5	0.04
103	S=c1oc(-c2ccccc2)nn1CNc1ccccc1	-0.65	/
104	CNC(=O)NC(=O)C(Sc1nnc(-c2ccc(C)cc2)o1)c1ccccc1 (configuration not stated)	0.1	/
105	CCCCCCCCCCOC1OC(COC(C)=O)C(OC(C)=O)C(OC(C)=O)C1NC(C)=O (configuration not stated)	/	-0.43
106	Cc1nn(-c2ccccc2)nc1-c1nnc(-c2ccc(Cl)cc2)o1	/	15
107	CCc1cc(Br)ccc1S(=O)(=O)N1CCN(c2cc(Cl)ccc2C)CC1	/	0.77
108	Cc1cccc(-c2nc3ccccc3c(=O)n2OC(=O)c2c(F)cccc2F)c1	/	-0.15
109	O=C(Nc1ccc(Cl)cc1)c1csc(COc2ccc3nonc3c2)n1	0.7	1.3
110	Nc1nc(-c2ccccc2)nc2sc3c(c12)CCCC3	-0.7	45
111	O=C(c1cccc(F)c1)N1CCN(Cc2c[nH]c3ccccc23)CC1	0.5	-0.52
112	CC(c1ccccc1)n1cnc2c(cnn2-c2ccccc2)c1=O (configuration not stated)	0.75	-0.61
113	CC(C)(C)NC(=O)c1nc(-c2ccccc2)n(-c2ccccc2)n1	0.75	/
114	N#Cc1ccc(NC(=O)C2CCC2)cc1	-1	-0.15
115	Oc1c(Br)cc2oc3c(c2c1CNc1ccccc1Cl)CCCC3	/	-0.38
116	CC1CCc2nc(NC(=O)C(C)C)sc2C1 (configuration not stated)	1.6	0.48
117	CSc1sc(NC(=O)N2CCOCC2)c(-c2ccc(Cl)cc2)c1C#N	-0.35	0.64
118	O=C(O)CCN=C1CCCc2ccccc2N1	0.05	0.39
119	CCOC(=O)COc1ccc(Br)cc1C=C1C(=O)NC(=O)NC1=O	/	-0.01
120	COc1ccc(CCNC(=O)C2CCCN2C(=O)NC2CCCCC2)cc1OC (configuration not stated)	-1.1	/
121	CC(C)Cn1cnc2c1c(=O)n(Cc1coc(-c3ccccc3)n1)c(=O)n2Cc1ccccc1	2	/
